Screening results: PubChem BioAssay, National Center for Advancing Translational Sciences (NCATS)
SARS PLpro yeast – SARS-CoV PLP inhibition in yeast; S. cerevisiae expressing SARS-CoV PLpro, growth rescue; control for the full effect not named in the record; Potency, µM (doses to about 32.9 µM), for inactives: at the highest dose activity, positive = growth rescue; hit rate 0.19% among 330,000; also: 0% is about no effect; nearly all actives have a fitted effect of over 55% in size; growth read by luminescence after 48 h
NS1 inh – blocks influenza NS1 protein function; S. cerevisiae slowed by influenza A NS1, growth recovery by OD600; Potency, µM (highest dose often 46.1 µM), for inactives: top-dose activity, positive = more growth; hit rate 0.4% among 270,000; AID 2326; also: actives are rising curves; nearly all actives have a fitted effect of over 50% in size
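Growth recovery, yeast-based: influenza A NS1 expressed in S. cerevisiae causes slow growth, and suppressors are detected by OD600. The parent strain without NS1 is used as positive control.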
Cruzain inh Det – inhibitors of Trypanosoma cruzi cruzain with detergent. P25779. purified cruzain, Z-FR-AMC fluorescence, 0.01% Triton. Potency, µM, inactives show max response, negative = inhibition, actives largely listed as inhibitors. AID 1478. hit rate 0.43% among 200,000; active = well fitted curve in the direction sought with a large enough effect; inconclusive = small, poorly fitted or top-dose-only effect, or another doubt; inactive = no such curve, though single readings can be large; an effect the other way counts as inactive or inconclusive;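 also: plate controls were neutral wells for no effect and buffer without enzyme for full effect; nearly all actives have a fitted effect of over 40% in size; top concentration of the series not given in the record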
Target sequence (P25779 123-467 limits assumed): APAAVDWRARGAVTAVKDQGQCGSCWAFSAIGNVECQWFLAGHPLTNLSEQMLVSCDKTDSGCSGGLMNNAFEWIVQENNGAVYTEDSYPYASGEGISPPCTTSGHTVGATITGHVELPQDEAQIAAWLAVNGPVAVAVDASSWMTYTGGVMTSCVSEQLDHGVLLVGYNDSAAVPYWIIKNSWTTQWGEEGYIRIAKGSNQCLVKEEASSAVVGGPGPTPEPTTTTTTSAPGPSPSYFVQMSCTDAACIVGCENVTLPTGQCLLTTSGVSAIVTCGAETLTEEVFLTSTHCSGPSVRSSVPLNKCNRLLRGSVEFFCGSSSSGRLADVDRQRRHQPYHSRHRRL
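Steps: dispense cruzain (1.5 nM final) in acetate buffer pH 5.5 with DTT and 0.01% Triton X-100; pin-transfer compounds; incubate 15 min RT; add Z-FR-AMC (2 uM final); read fluorescence every 30 s, using the 60 s intensity change.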
Lassa entry inh – blocks Lassa virus binding to or entry into cells | Potency, µM (titrated, usually from 37.9 µM), inactives show at the top dose activity change, negative = inhibition, actives largely listed as inhibitors | Lassa virus pseudotype entry inhibition, cell reporter; control for the full effect not named in the record | AID 540256 | hit rate 1.2% among 300,000; active means well fitted inhibition curve with a large enough effect; inconclusive means small, poorly fitted or top-dose-only effect, or effect the other way; inactive means flat fitted curve, though single readings scatter; tested in HEK293 cells; also: % is scaled to controls: 0 for no effect and ±100 for the full control effect; nearly all actives have a fitted effect of over 50% in size; luciferase read-out
2A StopGo – lowers the luciferase signal of an FMDV 2A StopGo reporter; human cells with a luciferase reporter of 2A StopGo recoding; control for the full effect not named in the record; hit rate 1.2% among 410,000; AID 1159524; Potency, µM (titrated, usually from 57.9 µM), inactives show at the top dose signal change, negative = less light; active = well fitted falling curve with a large enough effect; inconclusive = small, poorly fitted or top-dose-only effect; inactive = no such curve, though single readings can be large or run the other way; tested in HEK293T cells; also: % is scaled to controls: 0 for no effect and ±100 for the full control effect; nearly all actives have a fitted effect of over 45% in size; luciferase light after 4 h
Cruzain inh noDet – blocks cruzain activity in detergent-free assay; purified cruzain, Z-FR-AMC fluorescence, no detergent; Potency, µM, for the others: max response, negative = inhibition, hits mostly inhibitors; hit rate 2.3% among 200,000; AID 1476; active = well fitted curve in the direction sought with a large enough effect; inconclusive = small, poorly fitted or top-dose-only effect, or another doubt; inactive = no such curve, though single readings can be large; an effect the other way counts as inactive or inconclusive;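 also: plate controls were enzyme without inhibitor for no effect and buffer without enzyme for full effect; nearly all actives have a fitted effect of over 40% in size; top concentration of the series not given in the record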
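Purified cruzain at 1.5 nM, pre-incubated 15 min with compound at room temperature in 100 mM sodium acetate pH 5.5, 5 mM DTT, 0.00005% Triton X-100. Reaction started with 2 uM Z-FR-AMC; AMC fluorescence increase over 60 s gives rate.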
RE007 growth inh – less growth of the S. pombe RE007 Vpr strain. S. pombe RE007 Vpr strain, BacTiter-Glo ATP luminescence, 24 h; control for the full effect not named in the record. Potency, µM (series often up to 92.2 µM), for inactives: at the highest dose activity change, negative = less growth. hit rate 0.21% among 360,000. AID 651644; active = well fitted falling curve with a large enough effect; inconclusive = small, poorly fitted or top-dose-only effect; inactive = no such curve, though single readings can be large or run the other way;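 also: % is scaled to controls: 0 for no effect and ±100 for the full control effect; nearly all actives have a fitted effect of over 50% in size; the assay follows cell death caused by Vpr and the record does not say whether a fall means rescue or toxicity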
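Fission yeast strain RE007, carrying one chromosomally integrated HIV-1 vpr copy, was seeded at OD 0.01 in PMG+AL medium with 23 nL pinned compound. After 24 h at 30 °C and 99% humidity, viability was read by BacTiter-Glo luminescence.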
Marburg entry inh – blocks Marburg virus binding to or entry into cells; Marburg virus pseudotyped entry inhibition, cell reporter; control for the full effect not named in the record; about a third of the inactives were read at about 46 µM; AID 540276; Potency, µM (series often up to 37.8 µM), for inactives: at the top dose activity change, negative = inhibition, hits mostly inhibitors; hit rate 1.8% among 300,000; active = well fitted inhibition curve with a large enough effect; inconclusive = small, poorly fitted or top-dose-only effect, or effect the other way; inactive = flat fitted curve, though single readings scatter; tested in HEK293 cells; about a fifth of its hits are not listed in these tables; also: % is scaled to controls: 0 for no effect and ±100 for the full control effect; luciferase read-out
* hit, by the source's call; ? = inconclusive; / = not tested or not shown; & = joins results of further samples; [ ] = dose if it differs, or a comment. Unless noted, calls follow the shape of the dose curve; as a rule, active means well fitted rising curve with a large enough effect; inconclusive means small, poorly fitted or top-dose-only effect; inactive means no such curve, though single readings can be large or run the other way. Potency is read from the fitted curve at half-maximal effect.

SMILES	SARS PLpro yeast	NS1 inh	Cruzain inh Det	Lassa entry inh	2A StopGo	Cruzain inh noDet	RE007 growth inh	Marburg entry inh
O=C(O)CN1C(=O)/C(=C\c2cccc(OCc3ccc(Cl)cc3)c2)SC1=S	-8%	20%	/	/	2%	/	32%	/
CC(C)(C)OC(=O)N1CCC(c2c(C(=O)O)cnn2-c2ccc(F)cc2F)CC1	/	/	-0.7%	10%[46.1 µM]	-12%	15%	/	-19%[46.1 µM]
CN(c1ccccc1C(=O)Nc1ccc(S(=O)(=O)N2CCCC2)cc1)S(C)(=O)=O	21%	12%	4.6%	23%	/	-3%	-4%	2%
N#Cc1c(N2CCCCC2)nc(N)c2c(N)nc(SCC(=O)O)cc12	0%	6%	/	?	1%	/	-4%	2%[46.1 µM]
O=C(NC1CC1)C1CC(=O)N(c2ccccc2)C1 (stereo unspecified)	0%	2%	/	8%[46.1 µM]	21%	/	9%	7%[46.1 µM]
O=C1CSC(c2ccccc2)N1c1nc(-c2ccc(Cl)cc2Cl)cs1 (stereo unspecified)	0%	-1%	-1.1%	4%	-12%	?	-2%	31%
Nc1ccc(-c2nc3nc(N)nc(N)c3nc2-c2ccc(N)cc2)cc1	1%	2%	/	?	1%	/	-6%	?
Cc1nc(-c2ccccc2)sc1-c1ccc(SCC(=O)NCc2ccc(Cl)cc2)nn1	/	/	-0.4%	14%[46.1 µM]	-20%	-1%	/	/
COc1ccccc1CNC(=O)CSc1nnc2c(n1)[nH]c1ccc(F)cc12	-3%	-12%	/	1%[46.1 µM]	-23%	/	-4%	14%[46.1 µM]
CCOC(=O)Cn1c(CN2CCN(C(=O)c3ccco3)CC2)nc2c1c(=O)n(C)c(=O)n2C	21%	0%	/	/	-8%	/	-1%	/
O=C(O)c1ccc(NC(=O)c2ccc3c(c2)C(=O)N(c2ccccc2)C3=O)cc1	1%	0%	/	/	11%	/	29%	/
Cc1ccc(NC(=O)c2cc([N+](=O)[O-])ccc2N2CCOCC2)cc1S(=O)(=O)N1CCOCC1	2%	2%	/	-16%	-17%	/	9%	?
Cc1ccccc1C(=O)Nc1nnc(SCc2cc(=O)c3c(C)ccc(C)c3[nH]2)s1	/	/	6.9%	-15%[46.1 µM]	?	-6%	/	/
O=C(O)C1C2C=CC(O2)C1C(=O)Nc1ccccc1C(F)(F)F (stereo unspecified)	-33%	0%	4.1%	-6%	-16%	1%	-13%	4%
COc1cc(Cl)c(C)cc1NC(=O)CSc1cc(=O)n(C)c2cc(Cl)ccc12	/	/	-1.5%	9%[46.1 µM]	?	-9%	/	1%[46.1 µM]
Cc1n[nH]c(C)c1CNCc1c(C(=O)N2CCCCCCC2)nc2ccc(Cl)cn12	1%	0%	/	/	-17%	/	-4%	/
COc1ccc(C(C(=O)NC2CCCC2)N(CCC(C)C)C(=O)CCC(=O)Nc2cc(C)on2)cc1 (stereo unspecified)	9%	1%	/	?	5%	/	1%	?
C=CCN=C(NC#N)SCC(=O)c1cccc(OC)c1	4%	-12%	-1.1%	-6%	41%[activator]	-10%	6%	16%
C=CCSc1nnc(-c2ccccc2NC(=O)CC)c(=O)[nH]1	13%	-5%	3.1%	0%	-7%	-9%	2%	-11%[46.1 µM]
O=C(NCc1cccs1)c1ccc2ccccc2n1	-2%	/	/	6.5µM*	29%	/	-4%	5%
CCCOc1ccc(C(=O)N/N=C/c2c[nH]c3ccc(Br)cc23)cc1	-2%	-1%	/	?	-11%	/	6%	-15%[46.1 µM]
CCn1c(CC(=O)Nc2ccc(F)cc2)nnc1SCC(=O)NC1=NCCS1	1%	3%	/	0%	12%	/	0%	20%[46.1 µM]
CCOc1ccc(CN2CCN(Cc3cnc(N4CCOCC4)s3)CC2CCO)cc1 (stereo unspecified)	0%	2%	/	/	-22%	/	-4%	/
CCCn1c(=O)[nH]c(=O)c2c1nc(-c1ccccc1)n2CCN1CCOCC1	13%	5%	6.1%	0%	-22%	-2%	0%	-4%
Cn1cnnc1SCc1nnc(-c2ccccc2Br)o1	-2%	/	/	5%[46.1 µM]	16%	/	-12%	?
Cc1nc2ccccn2c(=O)c1NC(=O)c1ccccc1Cl	/	/	3.9%	6%[46.1 µM]	6%	2%	/	/
CC(O)CNc1nc2c(c(=O)n(C)c(=O)n2C)n1CCc1ccccc1 (stereo unspecified)	5%	-5%	6.0%	-22%	?	10%	9%	-27%
CCN(CC)c1ccc(C2CC(=O)NC3=C2C(=O)CC(C)(C)C3)cc1 (stereo unspecified)	2%	-3%	2.6%	11%	-21%	-4%	1%	32%
COc1ccc(Cl)cc1NC(=O)NCC1CCN(C(=O)OC(C)(C)C)CC1	-5%	-7%	/	-6%	?	/	0%	7%
C=CCOc1cccc(C(=O)/C=C2/C(=O)Nc3ccccc32)c1	-12%	-60%	/	/	28µM*	/	-6%	/
O=C(C1CCOCC1)N1CCCC(N2CCN(c3cccc(C(F)(F)F)c3)CC2)C1 (stereo unspecified)	-1%	5%	/	10%[46.1 µM]	-3%	/	18%	27%[46.1 µM]
Cc1ccc(CNC(=O)c2ccc(CNS(=O)(=O)c3ccc4c(c3)C(C)(C)C(=O)N4C)cc2)o1	4%	11%	/	/	-6%	/	1%	/
CCOC(=O)c1c(-c2ccccc2)csc1NC(=O)C(C)NCCCN1CCOCC1 (stereo unspecified)	-2%	/	/	?	11%	/	3%	?
CN(C)C(=C(C#N)C#N)N1CCN(c2ccc(Cl)c(Cl)c2)CC1	-4%	27%	-4.9%	-4%	?	24%	1%	?
CCOC(=O)CSc1nnc(NC(=O)c2cccc([N+](=O)[O-])c2)s1	7%	9%	1.1%	1%	3%	-24%	18%	0%
CCOC(=O)N1CCN(Cc2nc3cc(NC(C)=O)ccc3n2C(C)C)CC1	/	/	-1.8%	-24%[46.1 µM]	-16%	2%	/	?
C=Cc1ccc(Cn2c(C(=O)O)c(CNCc3ccc(F)cc3)c3ccc(C)cc32)cc1	/	/	-13%	?	?	?	/	/
CCOc1ccc(Oc2ccccc2NC(=O)CN2C(=O)NC3(CCCC3)C2=O)cc1	1%	/	/	?	1%	/	-1%	-27%
Cc1ccc(NS(=O)(=O)c2ccc3c(c2)n(C)c(=O)n3C)c(C)c1	2%	7%	0.5%	8%[46.1 µM]	-14%&18%	18%	3%	11%[46.1 µM]
O=C(CCSc1ccc(Cl)cc1)Nc1cccnc1	-2%	4%	/	/	10%	/	3%	/
CC1Cc2cc(S(=O)(=O)N3CCC(C(=O)NCc4ccco4)CC3)ccc2N1C(=O)C1CCC1 (stereo unspecified)	11%	-15%	/	?	-15%	/	0%	13µM*
O=C(c1cccs1)n1nc(NCc2ccccc2)nc1NCc1ccccc1	-10%	2%	-8.3%	10µM*	23%	-17%	-8%	?
Cc1[nH]c2ccc(C(=O)NCCc3ccccc3Cl)cc2c1C	/	/	-21%	-16%[46.1 µM]	38%[activator]	-26%	/	/
COc1ccc(OCC(=O)NNc2nc3ccccc3s2)cc1	0%	-2%	/	24%	-3%	/	6%	-3%[46.1 µM]
O=c1c2cc3c(cc2n(Cc2ccc(F)cc2)c(=O)n1Cc1nc(-c2ccccc2)no1)OCO3	/	/	0.5%	19%[46.1 µM]	-26%	-1%	/	/

5 entries picked at random from those above:
SMILES	SARS PLpro yeast	NS1 inh	Cruzain inh Det	Lassa entry inh	2A StopGo	Cruzain inh noDet	RE007 growth inh	Marburg entry inh
Cn1cnnc1SCc1nnc(-c2ccccc2Br)o1	-2%	/	/	5%[46.1 µM]	16%	/	-12%	?
CCn1c(CC(=O)Nc2ccc(F)cc2)nnc1SCC(=O)NC1=NCCS1	1%	3%	/	0%	12%	/	0%	20%[46.1 µM]
CCOc1ccc(Oc2ccccc2NC(=O)CN2C(=O)NC3(CCCC3)C2=O)cc1	1%	/	/	?	1%	/	-1%	-27%
Cc1ccccc1C(=O)Nc1nnc(SCc2cc(=O)c3c(C)ccc(C)c3[nH]2)s1	/	/	6.9%	-15%[46.1 µM]	?	-6%	/	/
C=CCOc1cccc(C(=O)/C=C2/C(=O)Nc3ccccc32)c1	-12%	-60%	/	/	28µM*	/	-6%	/

Laid out differently: results already given
> CCOC(=O)c1c(-c2ccccc2)csc1NC(=O)C(C)NCCCN1CCOCC1 (stereo unspecified)
  SARS PLpro yeast: -2% | NS1 inh: / | Cruzain inh Det: / | Lassa entry inh: ? | 2A StopGo: 11% | Cruzain inh noDet: / | RE007 growth inh: 3% | Marburg entry inh: ?

> CN(C)C(=C(C#N)C#N)N1CCN(c2ccc(Cl)c(Cl)c2)CC1
  SARS PLpro yeast: -4% | NS1 inh: 27% | Cruzain inh Det: -4.9% | Lassa entry inh: -4% | 2A StopGo: ? | Cruzain inh noDet: 24% | RE007 growth inh: 1% | Marburg entry inh: ?

(list continues)
SMILES	SARS PLpro yeast	NS1 inh	Cruzain inh Det	Lassa entry inh	2A StopGo	Cruzain inh noDet	RE007 growth inh	Marburg entry inh
COC(=O)Cc1c[nH]c2cccc(OCC(O)CN(Cc3ccc([N+](=O)[O-])cc3)C(C)(C)C)c12 (stereo unspecified)	-4%	-9%	-1.8%	?	?	-3%	-4%	?
COc1ccc(N(C(=O)c2ccco2)C(C(=O)NC2CCCC2)c2cccs2)cc1 (stereo unspecified)	0%	-3%	/	?	7%	/	13%	?
CC1(C)CC(=O)C2=C(C1)Nc1cc(Cl)ccc1S2	-1%	-2%	/	-2%	2%	/	3%	?
N#CC(=C=[N-])/C=C(\C(=O)c1ccccc1)[n+]1ccccc1	0%	-1%	/	23%	47%[activator]	/	17%	7%[46.1 µM]

Some entries already given, reduced to 2A StopGo:
Structure	2A StopGo
CCCn1c(=O)[nH]c(=O)c2c1nc(-c1ccccc1)n2CCN1CCOCC1	-22%
Cn1cnnc1SCc1nnc(-c2ccccc2Br)o1	16%
